From PubChem BioAssay
Mtb bLac sens: beta-lactam sensitization of Mtb H37Rv, H37Rv; inhibition, % at 25 µM; M. tuberculosis H37Rv growth with meropenem, percent inhibition; hits of this screen are not shown here; 330,000 compounds, 0.27% hits;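 active means about 74% or more and at least 40 points above the plate without the antibiotic, then above 30% in a dose series; inconclusive means first-round hits that could not be retested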;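 further: growth measured after seven days incubation then overnight dye step; 0% = bacteria only wells and 100% = bacteria with antibiotic; twin plates without the antibiotic show which effects depend on it; some results filed as inactive read as strong as hits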
Arbovirus inh: antivirals against arbovirus infection, primary screen, cell-based, full library, 10K replicate subset; arbovirus infection cell-based antiviral screen; inhibition, % at 10 µM; 200,000 compounds, 0.37% hits; AID 1251, 2008;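 active means inhibition from about 30%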;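 further: bluetongue infection of BSR cells; cell survival read as ATP light after 72 h; 0% = infected wells without compound and 100% = uninfected wells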
RecA splice inh: Mtb RecA intein splicing inhibitors, primary screen, biochemical, fluorescence, HTS | cell-free RecA intein splicing | inhibition, %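 (about 9 µM by stock and volumes)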 | 290,000 compounds, 0.75% hits | AID 2221, 2009; in the data active means inhibition above about 30%; inconclusive means no clear call, values can overlap the other calls;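 further: 0% = vehicle wells and 100% = reference inhibitor control wells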
Target sequence (P9WHJ3 whole entry, looked up, canonical isoform): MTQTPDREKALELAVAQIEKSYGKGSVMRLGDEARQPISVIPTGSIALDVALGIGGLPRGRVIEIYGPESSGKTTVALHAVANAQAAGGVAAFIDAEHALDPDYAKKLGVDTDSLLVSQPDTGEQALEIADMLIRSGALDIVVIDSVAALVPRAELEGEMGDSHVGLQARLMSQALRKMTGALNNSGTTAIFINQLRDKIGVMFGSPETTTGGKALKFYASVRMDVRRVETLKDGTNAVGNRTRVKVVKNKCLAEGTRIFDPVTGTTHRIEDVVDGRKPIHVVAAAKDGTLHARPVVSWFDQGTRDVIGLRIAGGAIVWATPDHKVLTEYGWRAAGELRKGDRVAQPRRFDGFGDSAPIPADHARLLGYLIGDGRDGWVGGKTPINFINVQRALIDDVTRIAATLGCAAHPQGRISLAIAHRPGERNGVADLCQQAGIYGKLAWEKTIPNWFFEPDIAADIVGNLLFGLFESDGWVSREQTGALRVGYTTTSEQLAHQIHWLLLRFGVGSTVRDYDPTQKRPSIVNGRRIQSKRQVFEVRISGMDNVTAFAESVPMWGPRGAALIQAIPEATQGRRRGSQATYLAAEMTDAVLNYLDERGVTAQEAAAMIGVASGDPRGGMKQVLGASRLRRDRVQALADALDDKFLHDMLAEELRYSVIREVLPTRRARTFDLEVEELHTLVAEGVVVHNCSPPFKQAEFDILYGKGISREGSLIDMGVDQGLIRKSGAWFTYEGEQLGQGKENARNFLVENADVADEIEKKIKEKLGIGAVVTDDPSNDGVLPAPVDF
YopH PTP inh: YopH tyrosine phosphatase inhibitors, primary screen, biochemical, fluorescence Ex485/Em525; YopH tyrosine phosphatase [Yersinia enterocolitica]; inhibition, %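 (about 10 µM by stock and volumes)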; 140,000 compounds, 0.16% hits;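 active means inhibition of 50% or more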;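 further: controls were vehicle for no effect and minimum signal wells for full effect; inactives centre near -20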
Mtb growth: M. tuberculosis H37Rv growth inhibitors, H37Rv strain (AID 1626). M. tuberculosis H37Rv growth inhibition; higher % means a stronger effect. inhibition, % at 10 µM; hits with a dose series show IC50 in µM. 220,000 compounds, 0.95% hits;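 active means confirmed in a dose series; inconclusive means inhibition above 80% but not taken into the dose series; inactive means below 80% or under 30% at every dose of the series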;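 further: bacteria incubated seven days before Alamar blue readout; 0% = bacteria only wells and 100% = bacteria with antibiotic wells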
Arbovirus inh repeat: also measured in Arbovirus inh; calls as there; inhibition, %; measured here: 10K subset replicate screen; many hits read low in the repeat;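 first of two repeat runs on a subset; 0% = infected and 100% = uninfected wells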
The depositor's hits bear a star. These rows are one share of the data, so the mix of outcomes need not match the whole.

Screening CC(=O)c1cccc(N(CC(=O)Nc2ccc(S(=O)(=O)N3CCOCC3)cc2)S(C)(=O)=O)c1 returned Mtb bLac sens -4 and RecA splice inh -0.1.
`O=S(=O)(Cc1ccc(Cl)cc1)c1ncc(CO)n1Cc1ccccc1` gave Mtb bLac sens -3, Arbovirus inh 1, RecA splice inh 1.2 and Mtb growth 4%.
For CCn1c(=O)c2c(nc3n2CCCN3c2cccc(C)c2)n(C)c1=O the results were Mtb bLac sens -11, RecA splice inh -0.3 and Mtb growth -8%.
O=C(NC(Cc1ccccc1)C(=O)O)OCc1ccccc1 (configuration not stated) was read as Mtb bLac sens 10, Arbovirus inh 8, RecA splice inh 0.7, YopH PTP inh -33 and Mtb growth -7%.
`Cc1nn(-c2ccccc2)c(Cl)c1CN(C(=O)CCl)c1ccc(Cl)cc1` gave Mtb bLac sens 98, Arbovirus inh -48, RecA splice inh 88*, YopH PTP inh -11 and Mtb growth 13µM*.
`COc1ccc(/C=C2\CCOC2=O)cc1` gave Mtb bLac sens 2, Arbovirus inh -1, RecA splice inh -4.3, YopH PTP inh -13 and Mtb growth -11%.
`CCOCc1cc(C)[nH]c(=O)c1C#N` gave Mtb bLac sens 1, Arbovirus inh -1, RecA splice inh 1.8 and YopH PTP inh -42.
`Cc1cccc(CS(=O)(=O)Cc2ccc(C(=O)NCCCN3CCOCC3)o2)c1` gave Mtb bLac sens -2, Arbovirus inh 2, RecA splice inh -1.1 and YopH PTP inh -28.
For O=C(CCn1c(=O)oc2ccccc21)N1CCN(C(c2ccccc2)c2ccccc2)CC1 the results were Mtb bLac sens 7, Arbovirus inh -25, RecA splice inh 12 and YopH PTP inh -25.
Cc1cc2c3c(c1)C1(C(=O)N3C(C)(C)CC2C)C(C#N)=C(N)Oc2cc(O)ccc21 (configuration not stated) was read as Mtb bLac sens 3, Arbovirus inh -21, RecA splice inh 8.5, YopH PTP inh 10 and Mtb growth 8%.
CC1=C(C(N)=O)C(c2cccs2)n2nc(-c3cccc(Cl)c3)nc2N1 (configuration not stated) was read as Mtb bLac sens -7, Arbovirus inh -11, RecA splice inh -0.2, YopH PTP inh -41 and Mtb growth -2%.
Screening COc1ccc(NS(=O)(=O)c2ccc(N3CCCC3)c(NC(=S)Nc3cccc(S(=O)(=O)N(C)C)c3)c2)cc1 returned Mtb bLac sens 72, Arbovirus inh 5, RecA splice inh 7.3, YopH PTP inh -11 and Mtb growth -6%.
For O=C(O)c1ccccc1C(=O)Nc1ccc(Oc2ccc3ccccc3c2)cc1 the results were Mtb bLac sens 0, Arbovirus inh 1, RecA splice inh 4.9 and Mtb growth -14%.
Screening O=C(CC(=O)Nc1cccc(Cl)c1)N/N=C\c1ccccc1 returned Mtb bLac sens -2, Arbovirus inh -2, RecA splice inh -1.2, YopH PTP inh -7 and Mtb growth 3%.
Cc1oc(-c2ccccc2F)nc1CS(=O)(=O)CC(=O)NCc1ccco1 was read as Mtb bLac sens -7, Arbovirus inh 4, RecA splice inh -4.2 and YopH PTP inh -14.

Retrieved by compound from the entries so far:
Screening CC(=O)c1cccc(N(CC(=O)Nc2ccc(S(=O)(=O)N3CCOCC3)cc2)S(C)(=O)=O)c1 returned Mtb bLac sens -4 and RecA splice inh -0.1.
`COc1ccc(/C=C2\CCOC2=O)cc1` gave Mtb bLac sens 2, Arbovirus inh -1, RecA splice inh -4.3, YopH PTP inh -13 and Mtb growth -11%.

Continuation:
CCN(CC)S(=O)(=O)c1ccc2oc(SCc3ccc(F)cc3)nc2c1 was read as Mtb bLac sens 78, Arbovirus inh 4, RecA splice inh 11, YopH PTP inh -17 and Mtb growth 6%.
Screening Cc1cc(=O)[nH]c(SCc2cccc3ccccc23)n1 returned Mtb bLac sens 5 and RecA splice inh 0.7.
Screening CN(C)CCNC(=O)Cc1ncc(C(F)(F)F)cc1Cl returned Mtb bLac sens -4, Arbovirus inh 9, RecA splice inh 1.2 and Mtb growth -2%.
`Cc1ccc(OCC(=O)N2N=C(c3cccnc3)CC2(O)C(F)(F)F)cc1C` (configuration not stated) gave Mtb bLac sens -1, Arbovirus inh 4, RecA splice inh 4.7, YopH PTP inh 0 and Mtb growth -2%.
`CCN(CC)c1ccc(/C=N/NC(=O)c2cccc(S(=O)(=O)N3CCOCC3)c2)cc1` gave Mtb bLac sens 1, Arbovirus inh -1, RecA splice inh -2.6, YopH PTP inh -41 and Mtb growth 3%.
For Cc1cc(C(=O)NCc2ccc3c(c2)OCO3)n(-c2ccccc2)n1 the results were Mtb bLac sens 4, Arbovirus inh -1, RecA splice inh 1.3, YopH PTP inh -45, Mtb growth 10% and Arbovirus inh repeat -6.
Screening CCCn1c(=NC(=O)CS(=O)(=O)c2ccccc2)sc2cc(S(C)(=O)=O)ccc21 returned Mtb bLac sens 4 and RecA splice inh -0.8.
For O=C(CNS(=O)(=O)c1ccccc1)OCc1cccc([N+](=O)[O-])c1 the results were Mtb bLac sens 1, Arbovirus inh 4, RecA splice inh -3.3, YopH PTP inh -11 and Mtb growth 2%.
`Cc1ccc(-c2n[nH]c(=O)c3ccccc23)cc1S(=O)(=O)NC(C)(C)C` gave Mtb bLac sens -3, Arbovirus inh -2, RecA splice inh 0.4 and Mtb growth 2%.
`O=C(Nc1ccc(F)cc1)C1C(c2ccccc2)C1(Cl)Cl` (configuration not stated) gave Mtb bLac sens -2, Arbovirus inh -26, RecA splice inh 9.8, YopH PTP inh -26 and Mtb growth 5%.
For CCc1nc2ccccc2c(=O)n1-c1ccccc1[N+](=O)[O-] the results were Mtb bLac sens 2, Arbovirus inh 1, RecA splice inh -7.1, YopH PTP inh -8 and Mtb growth -1%.
`S=c1[nH]nc(-c2ccc3ccccc3n2)n1-c1cc(Cl)cc(Cl)c1` gave Mtb bLac sens 16, Arbovirus inh 23, RecA splice inh 1.8, YopH PTP inh -21 and Mtb growth 20%.
`COc1cccc(N=C(N)N)c1` gave Mtb bLac sens 1, Arbovirus inh 6, RecA splice inh -2.8 and Mtb growth 7%.
CCCCCCN1C=C/C(=C\C=C(C#N)C#N)c2ccccc21 was read as Mtb bLac sens 39, Arbovirus inh -9, RecA splice inh -3.8, YopH PTP inh -19 and Mtb growth 35%.
CCN(c1ccccc1)S(=O)(=O)c1cc(C(=O)OC(C)C(=O)Nc2ccc3c(c2)OCCO3)ccc1C (configuration not stated) was read as Mtb bLac sens -9, Arbovirus inh 4, RecA splice inh 4.1 and Mtb growth 1%.
`O=C(Nc1ccccc1Br)c1cc(=O)c2ccccc2o1` gave Mtb bLac sens 4 and RecA splice inh 1.5.
Screening CCCCc1ccc(NC=C2C(=O)OC3(CCCCC3)OC2=O)cc1 returned Mtb bLac sens 97, Arbovirus inh -4, RecA splice inh -0.1, YopH PTP inh -2 and Mtb growth 6.2µM*.
`O=c1c(CN2CCN(Cc3ccccc3)CC2)coc2ccc(Cl)cc12` gave Mtb bLac sens -4, Arbovirus inh -2, YopH PTP inh 0 and Mtb growth -17%.
Screening O=C(CN(C(=O)C1CSC(=O)C1)c1cccc(F)c1)NCc1ccc2c(c1)OCO2 (configuration not stated) returned Mtb bLac sens 6 and RecA splice inh 13.
Screening Oc1ccc(Cl)cc1C=NCCc1ccccc1 returned Mtb bLac sens 1, Arbovirus inh -9, RecA splice inh -1.3, YopH PTP inh -21 and Mtb growth 4%.
Screening O=C(COc1ccc2c(c1)OCO2)Nc1nnc(Cc2ccccc2)s1 returned Mtb bLac sens 4 and RecA splice inh 1.8.
For COc1ccc(CCNC(=O)CSc2nc3cc(Cl)ccc3o2)cc1OC the results were Mtb bLac sens 82, Arbovirus inh 1, RecA splice inh -0.1, YopH PTP inh -14 and Mtb growth inconclusive.
Screening O=C(O)c1cc(NCc2ccc3c(c2)OCO3)ccc1N1CCOCC1 returned Mtb bLac sens 4, Arbovirus inh 1, RecA splice inh -3.6, YopH PTP inh -31 and Mtb growth -6%.
For CSc1cccc(NC(=S)N2CCCN(Cc3cccc(Cl)c3)C2)c1 the results were Mtb bLac sens 3, Arbovirus inh -33, RecA splice inh 0.5 and Mtb growth -2%.
For c1ccc2oc(-c3ccn[nH]3)cc2c1 the results were Mtb bLac sens 4 and RecA splice inh -0.7.
For CCOC(=O)CSc1nnc(CSc2nc3sc4c(c3c(=O)[nH]2)CCCC4)n1-c1ccccc1 the results were Mtb bLac sens -3, Arbovirus inh 1, RecA splice inh -0.4, YopH PTP inh -38 and Mtb growth -1%.
`CC(=O)c1ccc(NC(=O)C2CC(c3ccc(F)cc3)=NO2)cc1` (configuration not stated) gave Mtb bLac sens -5, Arbovirus inh 11, RecA splice inh 0.1, YopH PTP inh 0 and Mtb growth 6%.
Screening Fc1ccccc1/C=N/n1c(C2CCCCC2)n[nH]c1=S returned Mtb bLac sens -7 and RecA splice inh -1.6.
For CC[C@H](C)C(C(=O)N1CCN(C(=O)OC(C)(C)C)CC1)n1cc(C(Cc2ccc(O)cc2)NC(=O)OC(C)(C)C)nn1 (some centres not stated) the results were Mtb bLac sens -3, Arbovirus inh -5, RecA splice inh -1.3 and Mtb growth -8%.
`CC(C)CC(c1nnnn1C1CCCCC1)N1CCN(C(=O)c2ccco2)CC1` (configuration not stated) gave Mtb bLac sens -3 and RecA splice inh 1.4.
For COc1ccc(Cl)cc1NC(=O)CCS(=O)(=O)c1ccc(C)cc1 the results were Mtb bLac sens -1 and RecA splice inh 0.9.
For NC(=O)c1ccccc1OCC(=O)N1CCCc2ccccc21 the results were Mtb bLac sens -3 and RecA splice inh -1.4.
`CCOc1ccc(Cc2nc(N)nc(N)n2)cc1` gave Mtb bLac sens -4, Arbovirus inh -2, YopH PTP inh -28 and Mtb growth -1%.
For CCOc1ccc(NC2=NCCC(=O)N2Cc2cccs2)cc1 the results were Mtb bLac sens -2, Arbovirus inh -2, RecA splice inh 0.5, YopH PTP inh -8 and Mtb growth -6%.
CCCCc1cc(=O)oc2c(C)c(OCC(=O)N3CCCC3)ccc12 was read as Mtb bLac sens 2 and RecA splice inh 0.8.
For CN1C(=O)C(CC(=O)Nc2ccc(Cl)cc2)N(Cc2ccco2)C1=S (configuration not stated) the results were Mtb bLac sens 5, Arbovirus inh 6, RecA splice inh 3.9 and Mtb growth 4%.
Screening c1ccc(Nc2nc(NCc3ccco3)c3ccccc3n2)cc1 returned Mtb bLac sens 97, RecA splice inh 38* and Mtb growth inconclusive.
COc1cc(OC)c(OC)cc1/C=N/NC(=O)c1ccc2nc[nH]c2c1 was read as Mtb bLac sens 2, RecA splice inh -1.7 and Mtb growth 2%.
For Cc1ccc(NC(=O)C2=C(C(=O)O)CCCC2)cc1F the results were Mtb bLac sens 1 and RecA splice inh -1.1.
O=C(O)C1C2C=CC3(O2)C1C(=O)N1c2ccccc2C2OCCC2C13 (configuration not stated) was read as Mtb bLac sens -4, Arbovirus inh 10, RecA splice inh -2.6, YopH PTP inh -132 and Mtb growth -6%.
`NNC(=O)CC1NCCN(Cc2ccccc2)C1=O` (configuration not stated) gave Mtb bLac sens -3 and RecA splice inh -2.3.
Screening CCOc1ccc(C2CC(c3cccc(OC)c3)Nc3ncnn32)cc1 (configuration not stated) returned Mtb bLac sens -10, Arbovirus inh 10, RecA splice inh -0.3, YopH PTP inh 2, Mtb growth 4% and Arbovirus inh repeat 5.
`COC(=O)CNC(=O)C1CCN(c2nc(C)cc(C)n2)CC1` gave Mtb bLac sens 0, Arbovirus inh 2, RecA splice inh 1.5, YopH PTP inh -16 and Mtb growth -8%.
`COc1ccc(N2CC(C(=O)Nc3nnc(SCc4cccnc4)s3)CC2=O)cc1` (configuration not stated) gave Mtb bLac sens inconclusive and RecA splice inh -4.0.
Screening COc1ccc(CCNC(=O)C2CCN(Cc3nc(-c4cccc(Cl)c4)oc3C)CC2)cc1OC returned Mtb bLac sens 71, Arbovirus inh -27, RecA splice inh 0.8 and YopH PTP inh -17.
Screening Cn1c(Cc2ccc3c(c2)OCO3)nnc1SCC(=O)NC(C)(C)C returned Mtb bLac sens -7, Arbovirus inh -5, RecA splice inh -0.1 and Mtb growth 6%.
Screening COc1cc([N+](=O)[O-])c2nccnc2c1 returned Mtb bLac sens -1, Arbovirus inh -1 and Mtb growth -2%.

Copied from the listing for reference:
For c1ccc2oc(-c3ccn[nH]3)cc2c1 the results were Mtb bLac sens 4 and RecA splice inh -0.7.
For CCOC(=O)CSc1nnc(CSc2nc3sc4c(c3c(=O)[nH]2)CCCC4)n1-c1ccccc1 the results were Mtb bLac sens -3, Arbovirus inh 1, RecA splice inh -0.4, YopH PTP inh -38 and Mtb growth -1%.
`CC(=O)c1ccc(NC(=O)C2CC(c3ccc(F)cc3)=NO2)cc1` (configuration not stated) gave Mtb bLac sens -5, Arbovirus inh 11, RecA splice inh 0.1, YopH PTP inh 0 and Mtb growth 6%.
